# Screening results as filed in PubChem BioAssay.
# Cruzain inh noDet: qHTS Assay for Promiscuous and Specific Inhibitors of Cruzain (without detergent); Cruzipain (Trypanosoma cruzi), P25779; purified cruzain, Z-FR-AMC fluorescence, no detergent; Potency, µM, for the others: max response, negative = inhibition, most hits filed as inhibitors; 2.3% of 200,000 active; active = well fitted curve in the direction sought with a large enough effect; inconclusive = small, poorly fitted or top-dose-only effect, or another doubt; inactive = no such curve, though single readings can be large; an effect the other way counts as inactive or inconclusive;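 also: plate controls were enzyme without inhibitor for no effect and buffer without enzyme for full effect; nearly all actives have a fitted effect of over 40% in size; top concentration of the series not given in the record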
# Target sequence (P25779 123-467 limits assumed): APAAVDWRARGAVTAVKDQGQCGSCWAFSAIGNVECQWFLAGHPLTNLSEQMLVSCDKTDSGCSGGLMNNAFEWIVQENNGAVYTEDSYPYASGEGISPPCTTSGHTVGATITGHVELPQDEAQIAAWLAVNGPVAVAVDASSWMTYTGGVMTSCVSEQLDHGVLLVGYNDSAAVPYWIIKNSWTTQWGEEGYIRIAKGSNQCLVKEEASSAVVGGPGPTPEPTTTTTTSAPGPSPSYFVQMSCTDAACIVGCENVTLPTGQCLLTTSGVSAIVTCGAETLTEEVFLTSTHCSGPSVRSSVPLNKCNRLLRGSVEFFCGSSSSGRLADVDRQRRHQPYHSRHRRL
#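 Purified cruzain at 1.5 nM, pre-incubated 15 min with compound at room temperature in 100 mM sodium acetate pH 5.5, 5 mM DTT, 0.00005% Triton X-100. Reaction started with 2 uM Z-FR-AMC; AMC fluorescence increase over 60 s gives rate.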
# SARS PLP yeast: qHTS of Yeast-based Assay for SARS-CoV PLP | S. cerevisiae expressing SARS-CoV PLpro, growth rescue; control for the full effect not named in the record | 0.19% of 330,000 active | Potency, µM (titrated, usually from 32.9 µM), without a hit: top-dose activity, positive = growth rescue; also: 0% is about no effect; nearly all actives have a fitted effect of over 55% in size; growth read by luminescence after 48 h
# NS1 function inh: qHTS Assay for Inhibitors of Influenza NS1 Protein Function; S. cerevisiae slowed by influenza A NS1, growth recovery by OD600; Potency, µM (doses to about 46.1 µM), for the others: top-dose activity, positive = more growth; 0.4% of 270,000 active; also: actives are rising curves; nearly all actives have a fitted effect of over 50% in size
#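 Growth recovery, yeast-based: influenza A NS1 expressed in S. cerevisiae causes slow growth, and suppressors are detected by OD600. The parent strain without NS1 is used as positive control.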
# Lassa entry inh: qHTS for Inhibitors of binding or entry into cells for Lassa Virus; AID 540256, 2011; Potency, µM (highest dose often 37.9 µM), for inactives: top-dose activity change, negative = inhibition, actives largely listed as inhibitors; Lassa virus pseudotype entry inhibition, cell reporter; control for the full effect not named in the record; 1.2% of 300,000 active; active means well fitted inhibition curve with a large enough effect; inconclusive means small, poorly fitted or top-dose-only effect, or effect the other way; inactive means flat fitted curve, though single readings scatter; tested in HEK293 cells; also: % is scaled to controls: 0 for no effect and ±100 for the full control effect; nearly all actives have a fitted effect of over 50% in size; luciferase read-out
# StopGo reporter: High Throughput Screening for Foot and Mouth Disease Virus Antivirals; Potency, µM (top dose mostly 57.9 µM), for the others: at the top dose signal change, negative = less light; 1.2% of 410,000 active; human cells with a luciferase reporter of 2A StopGo recoding; control for the full effect not named in the record; AID 1159524, 2015; active = well fitted falling curve with a large enough effect; inconclusive = small, poorly fitted or top-dose-only effect; inactive = no such curve, though single readings can be large or run the other way; tested in HEK293T cells; also: % is scaled to controls: 0 for no effect and ±100 for the full control effect; nearly all actives have a fitted effect of over 45% in size; luciferase light after 4 h
# RE007 growth inh: qHTS Assay for Inhibitors of the HIV-1 protein Vpr | S. pombe RE007 Vpr strain, BacTiter-Glo ATP luminescence, 24 h; control for the full effect not named in the record | 0.21% of 360,000 active | Potency, µM (top dose mostly 92.2 µM), for inactives: top-dose activity change, negative = less growth; active = well fitted falling curve with a large enough effect; inconclusive = small, poorly fitted or top-dose-only effect; inactive = no such curve, though single readings can be large or run the other way;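 also: % is scaled to controls: 0 for no effect and ±100 for the full control effect; nearly all actives have a fitted effect of over 50% in size; the assay follows cell death caused by Vpr and the record does not say whether a fall means rescue or toxicity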
#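 Fission yeast RE007 carrying one integrated HIV-1 vpr copy, seeded at OD 0.01 in PMG+AL medium with 23 nL pinned compound. Grown 24 h at 30 degrees; viability read by BacTiter-Glo luminescence after 5 min.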
# Marburg entry inh: qHTS for inhibitors of binding or entry into cells for Marburg Virus; Marburg virus pseudotyped entry inhibition, cell reporter; control for the full effect not named in the record; about a third of the inactives were read at about 46 µM; Potency, µM (series often up to 37.8 µM), for inactives: at the highest dose activity change, negative = inhibition, actives largely listed as inhibitors; 1.8% of 300,000 active; AID 540276, 2011; active = well fitted inhibition curve with a large enough effect; inconclusive = small, poorly fitted or top-dose-only effect, or effect the other way; inactive = flat fitted curve, though single readings scatter; tested in HEK293 cells; about a fifth of its hits are not listed in these tables; also: % is scaled to controls: 0 for no effect and ±100 for the full control effect; luciferase read-out
# Cruzain inh Det: qHTS Assay for Promiscuous and Specific Inhibitors of Cruzain (with detergent). AID 1478, 2009. 0.43% of 200,000 active. Potency, µM, for the others: max response, negative = inhibition, usual class: inhibitors. purified cruzain, Z-FR-AMC fluorescence, 0.01% Triton. Cruzipain (Trypanosoma cruzi), P25779; active = well fitted curve in the direction sought with a large enough effect; inconclusive = small, poorly fitted or top-dose-only effect, or another doubt; inactive = no such curve, though single readings can be large; an effect the other way counts as inactive or inconclusive;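 also: plate controls were neutral wells for no effect and buffer without enzyme for full effect; nearly all actives have a fitted effect of over 40% in size; top concentration of the series not given in the record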
#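 Steps: dispense cruzain (1.5 nM final) in acetate buffer pH 5.5 with DTT and 0.01% Triton X-100; pin-transfer compounds; incubate 15 min RT; add Z-FR-AMC (2 uM final); read fluorescence every 30 s, using the 60 s intensity change.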
# Numbers without * were called inactive; ? = inconclusive; / = no result given; & = joins results of further samples; [ ] = another dose, or the depositor's remark. Unless noted, calls follow the shape of the dose curve; as a rule, active means well fitted rising curve with a large enough effect; inconclusive means small, poorly fitted or top-dose-only effect; inactive means no such curve, though single readings can be large or run the other way. Potency is read from the fitted curve at half-maximal effect.
# The opening 5 entries, to show the layout:
no.	Compound	Cruzain inh noDet	SARS PLP yeast	NS1 function inh	Lassa entry inh	StopGo reporter	RE007 growth inh	Marburg entry inh	Cruzain inh Det
1	CC(=NNC(=O)c1ccc2nc[nH]c2c1)c1ccc(Br)cc1	/	10%	/	-8%[46.1 µM]	6%	3%	-4%[46.1 µM]	/
2	CN(C)S(=O)(=O)c1ccc(Cl)c(NC(=O)COc2ccccc2[N+](=O)[O-])c1	-16%	-23%	-8%	?	-15%	3%	-3%	1.4%
3	NC(=O)c1cc(S(=O)(=O)NCC2CCC(C(=O)Nc3ccc(Cl)cc3)CC2)cs1 (centres undefined)	-12%	/	/	1%[46.1 µM]	-20%	/	/	3.5%
4	CCN(CC)S(=O)(=O)c1ccc(N2CCCC2)c(NS(=O)(=O)c2ccc(F)cc2)c1	2%	-5%	-10%	-20%	7%	-5%	4%	-4.9%
5	CC(=O)n1cc([C@H]2C=C(C(=O)N3CCN(Cc4ccccc4)CC3)O[C@@H](OCc3ccc(CO)cc3)C2)c2ccccc21	/	-3%	-5%	/	-8%	-2%	/	/

# The whole of this part (from the top)
no.	Compound	Cruzain inh noDet	SARS PLP yeast	NS1 function inh	Lassa entry inh	StopGo reporter	RE007 growth inh	Marburg entry inh	Cruzain inh Det
1	CC(=NNC(=O)c1ccc2nc[nH]c2c1)c1ccc(Br)cc1	/	10%	/	-8%[46.1 µM]	6%	3%	-4%[46.1 µM]	/
2	CN(C)S(=O)(=O)c1ccc(Cl)c(NC(=O)COc2ccccc2[N+](=O)[O-])c1	-16%	-23%	-8%	?	-15%	3%	-3%	1.4%
3	NC(=O)c1cc(S(=O)(=O)NCC2CCC(C(=O)Nc3ccc(Cl)cc3)CC2)cs1 (centres undefined)	-12%	/	/	1%[46.1 µM]	-20%	/	/	3.5%
4	CCN(CC)S(=O)(=O)c1ccc(N2CCCC2)c(NS(=O)(=O)c2ccc(F)cc2)c1	2%	-5%	-10%	-20%	7%	-5%	4%	-4.9%
5	CC(=O)n1cc([C@H]2C=C(C(=O)N3CCN(Cc4ccccc4)CC3)O[C@@H](OCc3ccc(CO)cc3)C2)c2ccccc21	/	-3%	-5%	/	-8%	-2%	/	/
6	Cc1ccc(-n2c(SCC(=O)Nc3cccc(S(=O)(=O)NC4=NCCCCC4)c3)nc3ccccc3c2=O)cc1C	-24%	-4%	9%	2%	2%	/	-11%	-3.7%
7	COc1ccc(OC)c(C2CC(=O)Oc3c2c(=O)n(C)c2ccccc32)c1 (centres undefined)	5%	/	/	-10%[46.1 µM]	-19%	/	29%[46.1 µM]	-4.6%
8	CC(C)[C@H](NC(=O)c1ccccc1Cl)C(=O)OCC(=O)Nc1ccc(S(=O)(=O)N2CCOCC2)cc1	/	3%	/	1%[46.1 µM]	-6%	-6%	?	/
9	COc1cccc(CNC(=O)CCCSc2ccccc2)c1	/	3%	-5%	9%	47%[activator]	-4%	16%[46.1 µM]	/
10	CSc1ccc(CN(C)C(=O)c2cc(S(=O)(=O)NCc3ccccc3)ccc2C)cc1	/	-4%	/	?	-17%	16%	?	/
11	O=C(Nc1ccc(N2CCOCC2)cc1)c1ccc(-c2ccccc2[N+](=O)[O-])o1	/	-2%	7%	-29%	-4%	1%	?	/
12	Cc1nn(Cc2c(F)c(F)c(F)c(F)c2F)c(C)c1NC(=O)c1cccc(COc2ccccc2Cl)c1	-15%	1%	15%	?	-34%	-8%	?	-0.2%
13	O=C(NCCc1ccccc1Cl)c1ccc2c(c1)nc1n2CCCCC1	-13%	/	/	?	25µM*	/	/	-0.9%
14	COc1ccc(S(=O)(=O)N2CCC(C(=O)Nc3ccccc3)CC2)cc1OC	-9%	/	/	-26%[46.1 µM]	-9%	/	20%[46.1 µM]	-4.1%
15	Cc1ccc(C(=O)Nc2ncc(Cc3ccc(F)cc3)s2)o1	-4%	0%	-6%	?	-2%	1%	?	-4.7%
16	O=C(N1CCOCC1)N1CCC(c2nc(-c3ccc(S(=O)(=O)N4CCOCC4)cc3)no2)CC1	0%	10%	-14%	/	0%	3%	-4%	-6.3%
17	O=S(=O)(c1ccc(Cl)cc1)N1CCN(S(=O)(=O)N2CCCCCC2)CC1	/	0%	7%	-4%	0%	-4%	5%[46.1 µM]	/
18	CC(C)(CC(=O)O)CC(=O)N1CCN(c2nc3ccc(Cl)cc3s2)CC1	/	-1%	1%	/	3%	-2%	/	/
19	COc1cccc(C(=O)/C=C/c2ccc(OCC#N)c(OC)c2)c1	2%	-5%	-3%	?	?	-20%	15µM*	-5.7%
20	CC(C)(C)Nc1c(N)c(=O)oc2ccccc12	-12%	-4%	0%	-10%	-3%	-4%	-7%	-4.1%
21	Cc1cc(OCC(=O)Nc2cc(C)nn2-c2ccccn2)c2c3c(c(=O)oc2c1)CCC3	13%	0%	5%	/	/	/	/	0.4%
22	CCCc1nc2sc3c(N4CCC(C)CC4)ncnc3c2c2c1CCCC2	10%	/	/	?	-13%	/	?	1.5%
23	O=C(OC1CCOC1=O)c1cc(-c2ccccc2)nc2ccccc12 (centres undefined)	11%	-5%	-4%	9%	12%	-23%	8%	-9.7%
24	COc1ccc(Nc2nnc(SCC3CCCCO3)s2)cc1 (centres undefined)	/	-5%	-6%	/	0%	-6%	/	/
25	O=S(=O)(NCCN1CCOCC1)c1cc(Cl)ccc1Cl	/	11%	1%	-13%[46.1 µM]	29%	1%	-5%[46.1 µM]	/
26	Cc1n[nH]c(C)c1S(=O)(=O)N1CCN(c2ccccn2)CC1	-11%	/	-3%	11%	-7%	19%	12%[46.1 µM]	3.9%
27	COc1ccc(CC(=O)NCC2(c3ccc(OC)c(OC)c3)CCOCC2)cc1	4%	-4%	3%	?	-9%	20%	8%&-3%	1.2%
28	O=C(N/N=C/c1ccc(OCC(=O)N2CCCCC2)cc1)c1ccccc1	7%	-2%	8%	2%	/	14%	4%	1.4%
29	O=C(O)/C=C/C(=O)Nc1ccccc1-c1ccccc1NC(=O)/C=C/C(=O)O	12%	1%	11%	?	-4%	-5%	3%	-0.3%
30	COc1cc(/C=N/n2nnnc2Nc2ccccc2)cc(OC)c1OC	?	3%	2%	-13%	-16%	2%	?	-6.4%
31	COc1ccc(/C=C2\SC(=S)N(CC(=O)OCC(=O)Nc3ccc([N+](=O)[O-])cc3OC)C2=O)cc1	/	1%	2%	21%	30%[activator]	18%	?	/
32	CCCOc1ccc(C2C(=O)N(C3CCCCCC3)CC(=O)N2CCC2=CCCCC2)cc1OC (centres undefined)	-3%	/	/	-13%[46.1 µM]	0%	/	/	5.5%
33	NNC(=S)Nc1c(Br)cc(F)cc1Br	/	0%	7%	/	-14%	-4%	/	/
34	Fc1ccc(-n2ncc3c(NC4CCCCCC4)ncnc32)cc1	-3%	/	/	-4%[46.1 µM]	0%	/	/	-0.4%
35	N#C/C(=C\N1CCCCC1)S(=O)(=O)c1ccc(Cl)cc1	/	2%	4%	/	0%	0%	/	/
36	CC(C)N(C(=O)c1ccc(C(=O)Nc2ccc([N+](=O)[O-])cc2)cc1)C(C)C	/	0%	0%	-15%[46.1 µM]	-19%	-7%	-1%[46.1 µM]	/
37	COc1ccccc1CCC(=O)NNC(=O)c1cccs1	/	-13%	/	-16%	31%[activator]	-13%	-21%	/
38	COc1ccc(NC(=O)CCNS(=O)(=O)c2ccc3c(c2)CC(C)N3C(C)=O)cc1 (centres undefined)	/	/	7%	-18%[46.1 µM]	-4%	1%	16%[46.1 µM]	/
39	Cc1cccc(OCCCC(=O)NCC(=O)Nc2cccc(C)c2C)c1	/	-1%	/	7%[46.1 µM]	4%	4%	-13%[46.1 µM]	/
40	C#CCOCCOCCOCCNc1nc(N2CCN(C(=O)C([C@@H](C)CC)n3cc(C(N)CC(C)C)nn3)CC2)nc(N2CCN(C(=O)[C@H](CCC(=O)O)n3cc(C(N)[C@H](C)CC)nn3)CC2)n1 (some centres undefined)	/	0%	4%	/	-19%	5%	/	/
41	N#CC1=C(N)C(C#N)(C#N)C(c2ccc[nH]2)C2CCCC=C12 (centres undefined)	-11%	6%	5%	-11%	-3%	2%	-1%	-7.2%
42	COc1ccc(C(=O)NC2CCN(S(=O)(=O)c3ccccc3F)CC2)cc1	/	1%	-2%	/	-24%	15%	/	/
43	COc1ccc(CN2CCNC(=O)C2CC(=O)NC2CCCC2)c(C)c1C (centres undefined)	/	-6%	-8%	/	1%	9%	/	/
44	OCC1(Cc2ccccc2)CCCN(Cc2cnn(-c3ccccc3)c2)C1 (centres undefined)	/	0%	3%	?	-10%	-6%	?	/
45	CCCCn1c(=NC(=O)c2ccco2)c(C(=O)OCC)cc2c(=O)n3cccc(C)c3nc21	/	0%	-1%	/	-17%	-3%	/	/
46	C/C(N)=C(/C#N)C(=O)CSc1nnc(Nc2ccccc2)s1	/	3%	/	?	18%	14%	?	/
47	Cn1nccc1NC(=O)Nc1ccccc1	/	1%	-3%	/	14%	7%	/	/
48	CC(C)CN1CCN(Cc2cccn2-c2cccnc2)CC1CCO (centres undefined)	/	1%	1%	-6%[46.1 µM]	-8%	0%	1%[46.1 µM]	/
49	Cc1[nH]c(=O)c(S(=O)(=O)c2ccccc2)c(C)c1Cl	/	-1%	8%	/	18%	-15%	/	/
50	Cc1cc(Cl)ccc1NC(=O)CN1C(=O)NC2(CCCc3ccccc32)C1=O (centres undefined)	/	2%	/	-13%	-24%	-29%	-4%	/
51	Cc1nnc(NN)n(N)c1=O	/	1%	-3%	14%[46.1 µM]	4%	-18%	-2%[46.1 µM]	/
52	O=C(CCC(=O)Nc1ccccc1)N/N=C/c1cccnc1	/	0%	9%	/	-5%	-10%	/	/
